Bioassay records deposited in PubChem BioAssay by several laboratories.
Mtb hypoxia rep: Mtb hypoxia fluorescent reporter inhibition | M. tuberculosis hypoxia-regulated fluorescent reporter, fluorescence | fluorescence inhibition, % (test concentration not listed) | 300,000 compounds, 0.1% hits;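 active means 35 to 45% if threefold the growth effect, above 45% if 1.5-fold the growth effect; inactive means the rest, general growth blockers included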;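 further: wells of about 50 µL received 100 nL stock; 0% = vehicle wells and 100% = reference inhibitor wells; whole bacteria with a GFP reporter of the hypoxia response; strong numbers were not always called active; many hits fall short of the cut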
BJeLR viability: kills HRASV12-expressing BJeLR cells; inhibition, % (concentration not given with the values); 300,000 compounds, 0.17% hits; AID 1554; BJeLR (HRASV12) viability, CellTiter-Glo ATP luminescence, 48 h; reference of the scale not given here;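 active means replicate mean above 50%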;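 further: 50 nL library stock added to about 25 µL; numbers are from one replicate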
RN4220 kill: S. aureus RN4220 growth inhibition; inhibition, % (test concentration not listed); OD600, 16 h; 330,000 compounds, 0.33% hits;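 active means z-score of -3 or lower and OD600 up to 0.18 on both plates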;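 further: plate controls were untreated cells for no effect and reference antibiotic for full effect; stock transfer was 100 nL into about 80 µL; one replicate is shown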
Autofluor counter: compound fluorescence in toxin protease inhibitor counterscreen; compound autofluorescence counterscreen, microsphere flow cytometry; active compounds read high; fluorescence intensity (concentration not given with the values); 360,000 compounds, 3.1% hits;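 active means at least 3 SD above the mean of all compounds, about 16000 in these data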;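 further: 100 nL of 1 mM stock went into each well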
ugtP null kill: compounds lethal to S. aureus RN4220 ugtP deletion mutant; OD600 growth, 16 h; some inactives read as strong as hits; growth inhibition, % (test concentration not listed); 330,000 compounds, 0.54% hits; AID 1259309;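 active means z-score under -3 and OD600 up to 0.15 on both plates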;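 further: plate controls were untreated wells for no effect and antibiotic for full effect; wells of about 80 µL received 100 nL stock; the first replicate is given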
PrP UTR inh: inhibition of PrP 5' UTR reporter expression. cell-based PrP 5' UTR mRNA reporter, plate reader. inhibition, % (test concentration not listed). 340,000 compounds, 0.35% hits. AID 488862;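 active means every replicate at 50% or more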;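 further: 0 = median of the neutral control wells; tested in H4 reporter cells; numbers are from one replicate; inactives centre near -14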
Mtb hypoxia rep growth: further read-out of Mtb hypoxia rep, marked with its call; growth inhibition, %; measured here: M. tuberculosis growth (absorbance);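 0% = vehicle and 100% = reference antibiotic; read after six days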
* hit, by the source's call; x = not tested or not shown.

SMILES	Mtb hypoxia rep	Mtb hypoxia rep growth	BJeLR viability	RN4220 kill	Autofluor counter	ugtP null kill	PrP UTR inh
COc1ccc(C=NNC(=O)c2ccc(CN3C(=O)c4cccc5cccc3c45)cc2)cc1O	2	11	x	5.2	x	10	x
CC(=NNC(=O)c1csc(C)c1C)c1ccco1	12	18	x	4.1	x	-2	x
Cc1cc(=O)[nH]c(SCC(=O)Nc2ccc3c(c2)CCC3)c1C#N	-2	8	x	8.4	3949	-2	-18
Cc1nc(C)c(-c2ccc(SCc3ccc([N+](=O)[O-])cc3)nn2)s1	9	2	-2	1.3	4302	-8	5
O=C(NCC(c1cccnc1)N1CCN(c2ccc(F)cc2)CC1)OCc1ccccc1 (stereo not drawn)	11	4	3	-15	x	-2	-25
CCN(CC)CCn1c(O)c(N=O)c2ccccc21	4	2	1	5.5	7898	6	0
CCCCCNC(=O)c1ccc2c(=O)n(CC3CCCO3)c(=O)[nH]c2c1 (stereo not drawn)	11	8	7	0.1	3267	5	-13
Cc1cc(C)nc(SCNC(=O)c2ccc(Cl)cc2)n1	2	1	2	5.4	9795	1	-32
CC(NC(=O)CN1C(=O)NC(C)(C2CC2)C1=O)c1ccc(F)cc1 (stereo not drawn)	6	1	x	-0.9	6178	11	-11
O=C(O)C[C@H]1c2ccccc2S(=O)(=O)N1c1ccccc1	x	x	-1	x	4105	x	-21
O=C(NCC1CC1)c1ccccc1Cl	8	5	-1	1.6	2995	7	-4
O=C(CCNC(=O)C1CCN(S(=O)(=O)c2ccccc2)CC1)NCc1cccc(C(F)(F)F)c1	8	0	4	3.3	5340	6	-10
C#CCOCCOCCOCCNc1nc(N2CCN(C(=O)C([C@@H](C)CC)n3cc(C(N)CO)nn3)CC2)nc(N2CCN(C(=O)[C@H](CCC(=O)O)n3cc(C(N)CC(C)C)nn3)CC2)n1 (stereo partly drawn)	x	x	-2	x	4011	x	20
COc1ccc(NC(=O)c2ccc(C(=O)c3cc(OC)ccc3OC)cc2)cc1	-2	4	-3	1.4	20895*	-4	2
S=C1NCCOCCNC(=S)NCCOCCOCCOCCN1	x	x	-5	4.7	1908	8	-24
O=C(/C=C/c1cccs1)N1CCCCC1	x	x	0	3.1	4010	2	-53
Cc1[nH][nH]c(=O)c1C(c1ccc(O)c([N+](=O)[O-])c1)c1c(C)[nH][nH]c1=O	x	x	1	-0.1	2498	3	-11
COc1ccc(N2CCN(C3CC(=O)N(c4ccc5c(c4)OCCO5)C3=O)CC2)cc1 (stereo not drawn)	1	-8	8	1.5	8324	7	x
CCCCS(=O)(=O)N1CCN(S(=O)(=O)c2ccc(Cl)s2)CC1	6	14	9	-1.8	6342	-4	-6
O=C(CCc1ccncc1)N1CCCC(Nc2ccc(F)cc2)C1 (stereo not drawn)	7	7	2	1.7	5680	5	-23

Some values from above:
Entry for `CCCCCNC(=O)c1ccc2c(=O)n(CC3CCCO3)c(=O)[nH]c2c1` (stereo not drawn) under Autofluor counter: 3267
Entry for `COc1ccc(NC(=O)c2ccc(C(=O)c3cc(OC)ccc3OC)cc2)cc1` under BJeLR viability: -3

The listing continues.
SMILES	Mtb hypoxia rep	Mtb hypoxia rep growth	BJeLR viability	RN4220 kill	Autofluor counter	ugtP null kill	PrP UTR inh
Cc1ccc(NS(=O)(=O)c2cc(C(=O)N3CCN(CCO)CC3)ccc2C)cc1	10	9	x	0.3	3574	3	-20
CC1(C(=O)NN=Cc2ccc3c(c2)OCO3)CC1(Br)Br (stereo not drawn)	8	18	x	0.3	x	-2	x
Cc1noc(C)c1S(=O)(=O)N1CCN(C(c2ccccc2)c2ccc(Cl)cc2)CC1 (stereo not drawn)	x	x	-3	-2.2	5912	15	-20
CCOc1ccc(S(=O)(=O)N2CCN(C(=O)COc3ccc(Br)cc3)CC2)cc1	16	24	x	1.8	2943	10	-3
CC1=CCC[C@H]2[C@H](C1)C(=O)C[C@@H](C)[C@]2(C)CC/C(=C/CO)CO	x	x	x	4.8	5351	9	-13
C=CCNC(=O)c1onc(CSc2ccccc2CC)c1C(=O)O	14	7	4	11	3568	-4	-8
Cc1ccc(S(=O)(=O)N2CCN(C(=O)COC(=O)CCOc3ccccc3)CC2)c(C)c1	5	-3	x	5.1	3040	4	-18
COc1ccccc1C(=O)NCCC(=O)N1CC=C(c2ccccc2)CC1	0	0	4	3.8	4120	4	1
Cc1ccc(CN(Cc2cc3cccc(C)c3[nH]c2=O)C(=O)N(C)C)cc1	10	15	1	6.9	4145	-10	-18
Cc1noc(NS(=O)(=O)c2ccc(NC(=O)CSc3nc4ccccc4[nH]3)cc2)c1C	16	12	-11	3.9	10517	10	-20
Clc1ccc(Nc2cc(-c3ccccc3)nc3ncnn23)cc1	13	15	-8	2.0	3874	-9	x
Cn1ccnc1-c1nc2ccccc2[nH]c1=O	7	-4	1	4.4	9166	3	2
Cc1ccc(S(=O)(=O)N(CC(=O)N2CCN(c3ccc(F)cc3)CC2)C2CCCCC2)cc1	12	13	6	-1.7	23859*	8	-9
O=C(COC(=O)CSCC(=O)N1CCCCC1)NCc1ccc(F)cc1	x	x	-1	-1.2	2778	0	-2
CCOc1ccc(N/C(N)=N/c2nc(C)c(C)c(=O)[nH]2)cc1	15	8	2	-1.3	3724	-2	-16
COc1cc(/C=C2\SC(=S)N(CCC(=O)Nc3ccccn3)C2=O)cc(OC)c1OC	6	3	0	5.2	4556	2	-19

14 consecutive compounds already listed, quoted:
SMILES	Mtb hypoxia rep	Mtb hypoxia rep growth	BJeLR viability	RN4220 kill	Autofluor counter	ugtP null kill	PrP UTR inh
Cc1noc(C)c1S(=O)(=O)N1CCN(C(c2ccccc2)c2ccc(Cl)cc2)CC1 (stereo not drawn)	x	x	-3	-2.2	5912	15	-20
CCOc1ccc(S(=O)(=O)N2CCN(C(=O)COc3ccc(Br)cc3)CC2)cc1	16	24	x	1.8	2943	10	-3
CC1=CCC[C@H]2[C@H](C1)C(=O)C[C@@H](C)[C@]2(C)CC/C(=C/CO)CO	x	x	x	4.8	5351	9	-13
C=CCNC(=O)c1onc(CSc2ccccc2CC)c1C(=O)O	14	7	4	11	3568	-4	-8
Cc1ccc(S(=O)(=O)N2CCN(C(=O)COC(=O)CCOc3ccccc3)CC2)c(C)c1	5	-3	x	5.1	3040	4	-18
COc1ccccc1C(=O)NCCC(=O)N1CC=C(c2ccccc2)CC1	0	0	4	3.8	4120	4	1
Cc1ccc(CN(Cc2cc3cccc(C)c3[nH]c2=O)C(=O)N(C)C)cc1	10	15	1	6.9	4145	-10	-18
Cc1noc(NS(=O)(=O)c2ccc(NC(=O)CSc3nc4ccccc4[nH]3)cc2)c1C	16	12	-11	3.9	10517	10	-20
Clc1ccc(Nc2cc(-c3ccccc3)nc3ncnn23)cc1	13	15	-8	2.0	3874	-9	x
Cn1ccnc1-c1nc2ccccc2[nH]c1=O	7	-4	1	4.4	9166	3	2
Cc1ccc(S(=O)(=O)N(CC(=O)N2CCN(c3ccc(F)cc3)CC2)C2CCCCC2)cc1	12	13	6	-1.7	23859*	8	-9
O=C(COC(=O)CSCC(=O)N1CCCCC1)NCc1ccc(F)cc1	x	x	-1	-1.2	2778	0	-2
CCOc1ccc(N/C(N)=N/c2nc(C)c(C)c(=O)[nH]2)cc1	15	8	2	-1.3	3724	-2	-16
COc1cc(/C=C2\SC(=S)N(CCC(=O)Nc3ccccn3)C2=O)cc(OC)c1OC	6	3	0	5.2	4556	2	-19
